Source: PubChem BioAssay (Broad Institute)
A1 inhib – blocks A1 activity | caspase activation, % (no concentration beside the values) | AID 2241 | MEF A1-2A-BIM cells, caspase-Glo luminescence, 3 h; percent of clofoctol signal, DMSO as zero | 21,000 tested, 0.51% active;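 active means most replicate scores above 10, or exactly half above 10 with mean activity above 10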;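 further: effector caspase 3 and 7 activity cleaving a DEVD luciferin substrate; 50 nL library stock added to about 30 µL; numbers are from one replicate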
BJeLR viability – BJeLR cell viability reduction; 30,000 tested, 0.64% active; viability loss activity score, % (concentration not given with the values); BJeLR fibroblasts viability, CellTiterGlo ATP luminescence, 48 h; HRASV12, hTERT and SV40 LT/ST transformed; AID 2275; in the data active means viability loss activity score above about 50%; about a fifth of its hits are not listed in these tables;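 further: higher score means fewer live cells and less ATP luminescence; stock transfer was 50 or 100 nL into about 30 µL; 0% = vehicle wells and 100% = a reference killing control; one replicate is shown; the record names a cut of 85%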
The depositor's hits bear a star; x = no result given. An excerpt (hit frequency here may not be typical).

Each structure is followed by: A1 inhib	BJeLR viability
- CC(C)c1c(O)ccc2c1CCC1C(C)(C)CCC[C@]21C (stereo partly specified)
 : 43*	5.3
- O=C(Nc1ccc(F)cc1)c1cc(N2CCN(c3ccc(F)cc3)CC2)nc2ccccc12
 : 0.1	-4.0
- NC(=O)Nc1nc2ccccc2[nH]c1=O
 : x	-2.7
- O=C(O)CCc1ccc(-c2cccs2)n1-c1ccccc1C(F)(F)F
 : 0.2	1.0
- C[C@@H]1CN([C@@H](C)CO)C(=O)c2cccc(NC(=O)c3ccncc3)c2O[C@@H]1CN(C)Cc1ccc(Oc2ccccc2)cc1
 : x	-0.4
- Cc1ccc2n1CCn1cc(-c3ccccc3)cc1-2
 : 0.2	-3.7
- C[C@@H]1CN([C@H](C)CO)C(=O)c2cc(NS(=O)(=O)c3cn(C)cn3)ccc2O[C@H]1CN(C)CC1CCCCC1
 : -0.7	4.2
- C[C@@H]1CN([C@H](C)CO)C(=O)c2cc(NC(=O)Nc3ccc(F)cc3)ccc2O[C@H]1CN(C)Cc1ccc(C(=O)O)cc1
 : 0.6	0.8
- COc1cc(CC2COC(=O)C2(O)Cc2ccc(O)c(OC)c2)ccc1O (stereo unspecified)
 : 0.1	1.4
- COc1ccc(S(=O)(=O)Nc2ccc3c(c2)C(=O)N([C@H](C)CO)C[C@@H](C)[C@H](CN(C)S(=O)(=O)c2ccc(C)cc2)O3)cc1
 : -0.2	2.4
- Cc1ccc(CS(=O)(=O)CCC(=O)NC2CC2)cc1
 : 0.1	9.3
- C[C@H]1CN([C@@H](C)CO)C(=O)c2cccc(NC(=O)C3CC3)c2O[C@H]1CN(C)C(=O)Nc1ccc(C(F)(F)F)cc1
 : x	-1.4
- Cn1cccc1Cc1nnc(SCC(=O)N2CCc3ccccc32)n1CCc1ccccc1
 : 0.2	13
- CC(C)(C)OC(=O)N1CCN(C(=O)Nc2ccc(C(=O)O)cc2)CC1
 : -0.3	-9.5
- C[C@H]1CN([C@@H](C)CO)C(=O)c2cc(NC(=O)CCC(F)(F)F)ccc2O[C@@H]1CN(C)Cc1ccncc1
 : 1.2	3.6
- Cc1cccn2cc(CNC(=O)c3ccccc3)nc12
 : 0.0	0.8
- O=C(NCc1ccccc1)C1CCCN(C(=O)N2CCOc3ccccc32)C1 (stereo unspecified)
 : 1.3	4.3
- Cc1noc(C)c1S(=O)(=O)Nc1ccc2c(c1)C(=O)N([C@@H](C)CO)C[C@H](C)[C@H](CN(C)Cc1ccccc1)O2
 : -0.5	-5.8
- COc1ccc(NC(=O)N(C)C[C@@H]2Oc3c(NC(=O)c4cc(C)nn4C)cccc3C(=O)N([C@@H](C)CO)C[C@@H]2C)cc1
 : x	-3.9
- C[C@@H]1CN([C@@H](C)CO)C(=O)c2cccc(NC(=O)c3ccncc3)c2O[C@H]1CN(C)Cc1ccncc1
 : x	-0.9
- Cc1noc(C)c1NC(=O)Nc1cccc2c1O[C@@H](CN(C)C(=O)Nc1ccc(F)cc1)[C@@H](C)CN([C@@H](C)CO)C2=O
 : x	-1.0
- Cc1cc(C(=O)Nc2cccc3c2O[C@@H](CN(C)C(=O)NC2CCCCC2)[C@H](C)CN([C@H](C)CO)C3=O)n(C)n1
 : x	3.5
- Cn1c(=O)c2cc(C(=O)NC3CCCCCC3)sc2c2ccc(Cl)cc21
 : x	-1.8
- CCCN(CCC)S(=O)(=O)c1ccc2c(c1)oc(=O)n2CC(=O)OCC
 : x	-9.2
- Clc1ccc(/C=C/C2=Nc3cccc4cccc(c34)N2)cc1
 : x	5.9
- Cc1ccccc1-c1nsc(SCC(=O)NC2CCCCC2)n1
 : -0.2	0.1
- CNC(=O)c1c(N)sc2c1CCCCC2
 : -0.3	-1.6
- C[C@@H]1CN([C@H](C)CO)C(=O)c2cc(NC(=O)Nc3ccc(C(F)(F)F)cc3)ccc2O[C@H]1CN(C)S(=O)(=O)c1cn(C)cn1
 : -0.7	1.0
- Cc1ccc(S(=O)(=O)Nc2cccc3c2O[C@H](CN(C)S(=O)(=O)c2cccs2)[C@@H](C)CN([C@H](C)CO)C3=O)cc1
 : x	0.8
- Clc1ccc(C2=NN=C(N3CCCC3)SC2)cc1
 : -6.6	33

Complete entries as entered above. Order of values: A1 inhib | BJeLR viability
Shown for `C[C@H]1CN([C@@H](C)CO)C(=O)c2cccc(NC(=O)C3CC3)c2O[C@H]1CN(C)C(=O)Nc1ccc(C(F)(F)F)cc1` = x | -1.4
Shown for `Cc1ccc(CS(=O)(=O)CCC(=O)NC2CC2)cc1` = 0.1 | 9.3
Shown for `CC(C)(C)OC(=O)N1CCN(C(=O)Nc2ccc(C(=O)O)cc2)CC1` = -0.3 | -9.5
Shown for `C[C@@H]1CN([C@H](C)CO)C(=O)c2cc(NS(=O)(=O)c3cn(C)cn3)ccc2O[C@H]1CN(C)CC1CCCCC1` = -0.7 | 4.2
Shown for `Cc1cccn2cc(CNC(=O)c3ccccc3)nc12` = 0.0 | 0.8

Next section:
Each structure is followed by: A1 inhib	BJeLR viability
- COc1cc2c(cc1OC)C(COc1ccc(F)cc1)N(C(=S)Nc1cccc(C)c1C)CC2 (stereo unspecified)
 : x	1.8
- CNC[C@H]1Oc2ccc(NC(=O)CCC(F)(F)F)cc2C(=O)N([C@@H](C)CO)C[C@H]1C
 : 0.3	2.2
- Cc1noc(C)c1NC(=O)N(C)C[C@H]1Oc2c(NS(=O)(=O)c3ccccc3)cccc2C(=O)N([C@@H](C)CO)C[C@@H]1C
 : x	2.6
- CC(=O)NC(NCc1ccccc1)(C(F)(F)F)C(F)(F)F
 : 0.1	-1.4
- CCN(Cc1ccccc1)C(=O)CSc1nc2nc(C)c(Cc3ccccc3Cl)c(C)n2n1
 : x	-5.9
- N#Cc1sc2c(c1OC(=O)c1cccs1)c(=O)n(-c1ccccc1)c(=S)n2-c1ccccc1
 : 0.7	0.8
- C[C@H](CO)N1C[C@H](C)[C@H](CN(C)Cc2ccccc2)Oc2ccc(NS(=O)(=O)c3cn(C)cn3)cc2C1=O
 : -0.1	1.2
- CCCCN(C)C(=S)Nc1ccc2nc3n(c(=O)c2c1)CCCCC3
 : x	-1.7
- C[C@H](CO)N1C[C@H](C)[C@@H](CN(C)Cc2ccc(Cl)c(Cl)c2)Oc2ccc(NS(=O)(=O)c3ccc(F)cc3)cc2C1=O
 : -0.6	1.7
- C[C@@H]1CN([C@@H](C)CO)C(=O)c2cccc(NS(=O)(=O)c3cn(C)cn3)c2O[C@@H]1CN(C)C(=O)Nc1ccc2c(c1)OCO2
 : x	0.9
- O=C(/C=C/c1ccccc1)Nc1ccc(Oc2ccc(F)cc2F)nc1
 : -0.5	10.0
- CN=C1S/C(=C\c2cccn2-c2ccc(N(C)C)cc2)C(=O)N1C
 : x	-3.0
- Nc1ccc(S(=O)(=O)Nc2ccnn2-c2ccccc2)cc1
 : -0.3	3.9
- C[C@@H]1CN([C@@H](C)CO)C(=O)c2cc(NC(=O)c3ccncc3)ccc2O[C@@H]1CN(C)Cc1ccc(C(F)(F)F)cc1
 : -0.1	-5.6
- COc1ccc(S(=O)(=O)Nc2ccc3c(c2)C(=O)N([C@H](C)CO)C[C@@H](C)[C@H](CN(C)S(=O)(=O)c2ccc(OC)cc2)O3)cc1
 : -0.3	1.4
- Cc1cc(C(=O)Nc2cccc3c2O[C@H](CN(C)S(=O)(=O)c2cccs2)[C@H](C)CN([C@H](C)CO)C3=O)n(C)n1
 : x	-3.0
- CN(C)S(=O)(=O)c1ccc(C(=O)NCCC23CC4CC(CC(C4)C2)C3)cc1
 : -0.4	4.5
- CC(=O)N[C@H]1[C@H](O[C@H]2CC[C@@]3(C)C(CC[C@]4(C)C3CC=C3[C@@H]5CC(C)(C)CC[C@]5(C(=O)O)CC[C@]34C)C2(C)C)O[C@H](CO[C@@H]2OC[C@H](O)[C@H](O)[C@H]2O[C@@H]2OC[C@H](O)[C@H](O)[C@H]2O)[C@@H](O)[C@@H]1O (stereo partly specified)
 : -0.5	6.7
- O=C1/C(=C/c2c[nH]c3ccccc23)CSc2ccccc21
 : -6.6	-2.6
- NC(=O)c1cc2ccccc2oc1=O
 : 0.4	-1.9
- Cc1ccccc1S(=O)(=O)Cc1ccc(C(=O)N2CCc3ccccc32)o1
 : x	2.1
- C[C@@H]1CN([C@H](C)CO)C(=O)c2cccc(NS(=O)(=O)c3ccccc3)c2O[C@@H]1CN(C)C(=O)NC1CCCCC1
 : x	-1.9
- CCOC(=O)c1c(-c2ccccc2)oc2ccc(N(C(C)=O)S(=O)(=O)c3ccc(OC)cc3)cc12
 : -0.3	26
- C[C@@H]1CN([C@@H](C)CO)C(=O)c2cccc(NC(=O)C3CCOCC3)c2O[C@@H]1CN(C)C(=O)Nc1cccc2ccccc12
 : x	5.5
- CSc1ncc(Cl)c(C(=O)Nc2c(C(=O)Nc3ccccc3)oc3ccccc23)n1
 : 1.0	4.7
- Cc1noc(C)c1NC(=O)Nc1ccc2c(c1)C(=O)N([C@H](C)CO)C[C@@H](C)[C@@H](CN(C)S(=O)(=O)c1ccccc1)O2
 : 0.6	-2.8
- C[C@H](CO)N1C[C@H](C)[C@H](CN(C)Cc2ccc3c(c2)OCO3)Oc2c(NC(=O)c3ccc(-c4nccs4)cc3)cccc2C1=O
 : x	1.8
- CC(Sc1ccc(Cl)cc1)C(=O)NCc1ccncc1 (stereo unspecified)
 : -0.1	-0.8
- COc1ccc2c(Sc3ccccc3)c(C(=O)N3CCCCC3)[nH]c2c1
 : 1.6	-4.1
- N#CCSc1nc2nccnc2c(=O)n1Cc1ccccc1Cl
 : 0.3	-2.0
- C[C@@H]1CN([C@@H](C)CO)C(=O)c2cc(NC(=O)Cc3cn(C)c4ccccc34)ccc2O[C@@H]1CN(C)Cc1ccc(Oc2ccccc2)cc1
 : 0.0	-0.2
- Cc1cc(C(=O)Nc2cccc3c2O[C@H](CN(C)C(=O)Nc2ccccc2)[C@@H](C)CN([C@H](C)CO)C3=O)n(C)n1
 : x	-1.9
- CC(C)N1C(=O)CCC1C(=O)NCCc1ccc(Cl)cc1 (stereo unspecified)
 : 0.7	-0.4
- C[C@H](CO)N1C[C@H](C)[C@@H](CN(C)S(=O)(=O)c2ccc(F)cc2)Oc2c(NS(C)(=O)=O)cccc2C1=O
 : x	3.8
- CC1CNCCN1S(=O)(=O)c1cccc2cnccc12 (stereo unspecified)
 : 0.6	-1.4
- Cc1noc(C)c1NC(=O)N(C)C[C@@H]1Oc2c(NS(=O)(=O)c3c(C)noc3C)cccc2C(=O)N([C@@H](C)CO)C[C@@H]1C
 : x	1.0
- COc1ccc(CN2CCN(c3ncnc4scc(-c5ccc(Cl)cc5)c34)CC2)cc1F
 : x	-1.1
- Cc1c(C)c(C)c2[nH]c(SCc3nc(-c4ccc(Cl)cc4)no3)nc2c1C
 : -0.1	-1.7
- COc1ccc(CN(C)C[C@@H]2Oc3ccc(NC(=O)Cc4cn(C)c5ccccc45)cc3C(=O)N([C@@H](C)CO)C[C@@H]2C)cc1
 : 0.2	-3.6
- O=C(NCc1ccco1)c1ccc(-n2c(=S)[nH]c3ccccc3c2=O)cc1
 : 1.5	0.7
- CC(=O)N=c1sc(S(N)(=O)=O)nn1C
 : 0.3	4.4
- CN(C)c1cnn(-c2cnc3ccccc3n2)c(=O)c1Cl
 : -4.9	-4.0
- CCC1(CC)Cc2ccccc2C(Nc2c(C)n(C)n(-c3ccccc3)c2=O)=N1
 : 0.8	8.1
- C[C@H](CO)N1C[C@H](C)[C@@H](CN(C)C(=O)Nc2ccc(C(F)(F)F)cc2)Oc2c(NC(=O)Nc3ccccc3)cccc2C1=O
 : x	-1.8
- O=C(O)c1cc(=O)c2c(O)cccc2o1
 : -0.6	-1.7
- O=C(O)CC(NC(=O)C(c1ccccc1)c1ccccc1)c1ccco1 (stereo unspecified)
 : -0.8	13
- CCc1ccc(N(C)S(=O)(=O)c2ccc3[nH]cc(C(=O)N4CCCCCC4)c(=O)c3c2)cc1
 : 0.4	0.8
- CNC[C@H]1Oc2ccc(NS(=O)(=O)c3ccc(C)cc3)cc2C(=O)N([C@@H](C)CO)C[C@@H]1C
 : 0.1	1.2
- Cc1c(Cl)cccc1NC(=O)CC(NCc1ccccn1)C(=O)O (stereo unspecified)
 : x	-5.7
- Cc1ccc2c(cnn2C(=O)CCCC(=O)NC2CCCC(C)C2C)c1 (stereo unspecified)
 : 0.6	3.1
- CC1CC(C)N(C(=O)c2cc(-c3ccc(F)cc3)no2)C(C)C1 (stereo unspecified)
 : 1.6	-0.2
- Cc1noc(C)c1NC(=O)Nc1cccc2c1O[C@H](CN(C)Cc1ccccc1)[C@H](C)CN([C@H](C)CO)C2=O
 : x	-3.6
- Cc1cc(Br)ccc1OCC(=O)NCCC1=CCCCC1
 : x	-1.4
- COc1ccc(CN(C)C[C@@H]2Oc3ccc(NC(=O)C4CC4)cc3C(=O)N([C@@H](C)CO)C[C@@H]2C)cc1
 : -0.7	-0.4
- C=CCNS(=O)(=O)c1cccs1
 : x	-4.9
- O=C(NCCc1ccccc1)c1cc2ccccc2oc1=O
 : -1.1	-3.7
- COc1ccc(-c2noc(-c3ccc(OC)cc3)n2)cc1
 : x	3.3
- O=C(NCc1cccc(Cl)c1)c1nc2c(nnn2Cc2ccccc2)c(=O)[nH]1
 : x	-2.0
- COC(=O)[C@H](c1ccccc1Cl)N1CCc2sccc2C1
 : -1.2	-5.7
- Cc1ccc(C)c(Cn2c(C)nc3c(sc(=S)n3-c3ccccc3)c2=O)c1
 : -0.2	1.8

Next structures:
Each structure is followed by: A1 inhib	BJeLR viability
- COc1cc(C(=O)NCCC(=O)NC2CCCc3ccccc32)cc(OC)c1OC (stereo unspecified)
 : 0.6	-2.7
- Cc1nn2c3ccccc3n(C)c2c1C(=S)Nc1ccccc1
 : 0.9	-3.0
- c1ccc(CN2CCN(Cc3ccccc3)C2c2ccco2)cc1
 : -1.4	-2.5
- C=C(C)Cn1c(SCC(=O)NN)nc2ccccc2c1=O
 : 0.6	2.2
